# TLR4 MyD88 comp = inhibitors of human TLR4-MyD88 binding. O00206+Q99836. HeLa CL3-4 TLR4/MyD88 BLA complementation, FRET ratio. inhibition, % at 8.4 µM. 0.18% of 200,000 active; in the data active = inhibition above about 25%;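 note: 0% = vehicle and 100% = reference inhibitor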
# S1P3 antagonist = S1P3 (human) receptor antagonism. inhibition, % at 4.98 µM. 0.27% of 170,000 active. AID 485. CHO S1P3 NFAT-BLA reporter, FRET fluorescence, antagonist mode;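 active = inhibition above the plate cutoff, the mean inhibition of test wells on that plate plus 3 SD, cut at about 28% in these data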;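 note: cells challenged with S1P at its EC80 of 0.8 µM; blue over green emission ratio from cleaved BLA substrate after 4 h stimulation; 0% = S1P-stimulated wells and 100% = unstimulated DMSO-only wells; some compounds past the cut are filed as inactive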
# Target sequence (Q99500 whole entry, looked up): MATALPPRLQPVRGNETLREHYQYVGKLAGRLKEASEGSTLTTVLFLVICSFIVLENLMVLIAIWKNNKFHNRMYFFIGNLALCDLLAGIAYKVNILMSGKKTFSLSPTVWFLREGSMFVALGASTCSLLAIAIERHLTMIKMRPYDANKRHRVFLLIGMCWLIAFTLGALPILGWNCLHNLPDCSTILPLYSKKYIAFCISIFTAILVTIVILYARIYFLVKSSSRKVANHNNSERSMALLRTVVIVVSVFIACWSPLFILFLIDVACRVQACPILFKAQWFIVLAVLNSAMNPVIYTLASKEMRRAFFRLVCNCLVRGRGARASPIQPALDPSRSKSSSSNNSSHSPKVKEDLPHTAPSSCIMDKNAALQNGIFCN
# STAT1 inh = reduces IFN-gamma driven STAT1 reporter signal. NIH 3T3 STAT1-luciferase reporter, luminescence. inhibition, % at 5.5 µM. 0.35% of 200,000 active. AID 920;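 active = inhibition above a set limit, the mean inhibition across all tested compounds plus 3 SD, cut at about 34% in these data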;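 note: 0% = IFN-gamma with DMSO and 100% = IFN-gamma with 300 µM nifuroxazide; values of inactives mirror those of a sister screen read the other way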
# RAM network inh = inhibitors of the yeast RAM network | S. cerevisiae dse1pr::URA3 reporter, 5-FOA growth OD615, 2 d; analog-sensitive cbk1-as2 kinase mutant strain | inhibition, % at 50 µM | 1.8% of 190,000 active;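 active = inhibition above a set limit, 3 SD over mean compound inhibition, cut at about 8.4% in these data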;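 note: 0% = DMSO-only wells with no growth and 100% = 10 µM 1-NA-PP1 full growth; inhibition rescues growth on 5-FOA so higher OD means more RAM inhibition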
# STAT3 act = activators of IL-6 induced STAT3 signaling; U3A cells, IL-6 STAT3-luciferase reporter, luminescence; 100% = signal with IL-6 EC80 alone; activation (% of control), % at 5.6 µM; 0.91% of 190,000 active; AID 871;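 active = activation above the screen-wide mean of compound activation plus 3 SD, cut at about 130% in these data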;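 note: 0% = background luminescence of wells with medium and substrate only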
#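 System – human U3A cells carrying STAT3-luciferase construct · Probe or stimulus – Interleukin-6, 33 ng/mL · Schedule – compound 1 h, then IL-6 6 h at 37 °C · Signal – luminescence from STAT3-driven luciferase reporter · Evaluation – percent of IL-6-only median luminescence · Benchmarks – IL-6-only high control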
# STAT3 inh = reduces IL-6 driven STAT3 reporter signal. U3A cells, IL-6 STAT3-luciferase reporter, luminescence; host cell line lacks STAT1. inhibition, % at 5.5 µM. 0.89% of 190,000 active;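 active = inhibition above the mean inhibition across all screened compounds plus 3 SD, cut at about 44% in these data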;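 note: 0% = DMSO only wells and 100% = 100 µM nifuroxazide control wells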
# ROMK primary = modulators of human ROMK potassium channel; P48048; Tet-inducible ROMK, thallium flux fluorescence; actives lie on both sides; B-score at 10 µM; 2% of 130,000 active; AID 1918;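 active = signal ratio slope over the read window, or its plate-corrected B-score, at least 3 SD from the plate mean, either direction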;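 note: B-score of the F/F0 ratio slope over 7 to 12 s after thallium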
# * hit, by the source's call; . = not tested or not shown; & = joins results of further samples. These rows are one share of the data; count on the stated rates, not on these rows.
nr	structure	TLR4 MyD88 comp	S1P3 antagonist	STAT1 inh	RAM network inh
1	CNCC[C@H](Oc1cccc2ccccc12)c1cccs1	.	-16	.	.
2	O=c1[nH]cc(F)c(=O)[nH]1	-4	-15	5	1.1
3	OCCOCCN1CCN(C2=Nc3ccccc3Sc3ccccc32)CC1	.	21	.	.
4	CC(c1cc2ccccc2s1)N(O)C(N)=O (stereo not drawn)	.	-8	.	.
5	O=C1CCc2ccc(OCCCCN3CCN(c4cccc(Cl)c4Cl)CC3)cc2N1	.	0	.	.
6	CC[n+]1c(/C=C(\C)OC)sc2ccccc21	1	-8	1	-0.1
7	CN(C)CCC(c1ccc(Cl)cc1)c1ccccn1 (stereo not drawn)	3	-1&-18	-3	0.4
8	N[C@@H]1CONC1=O	.	-7	.	.
9	CC(C)(C)NC[C@H](O)COc1nsnc1N1CCOCC1	0	-2	0	2.4
10	C[C@@H]1O[C@@H](OC[C@H]2O[C@@H](Oc3c(-c4ccc(O)c(O)c4)oc4cc(O)cc(O)c4c3=O)[C@H](O)[C@@H](O)[C@@H]2O)[C@H](O)[C@H](O)[C@H]1O	.	2	.	.
11	C1CCC2=NCCCN2CC1	-21	-2	6	0.7
12	CN(C)c1ccc(O)c2c1CC1CC3[C@@H](N(C)C)C(=O)C(C(N)=O)=C(O)[C@]3(O)C(=O)C1=C2O (stereo partly drawn)	-1	-18	-7	0.7
13	CN(C)CC/C=C1\c2ccccc2Sc2ccc(Cl)cc21	6	-8	1	0.3
14	CN(C)CC/C=C1/c2ccccc2COc2ccccc21	.	2	.	.
15	Cc1ccc(S(=O)(=O)Cc2sc3ccccc3[n+]2C)cc1	-11	.	3	1.1

nr	STAT3 act	STAT3 inh	ROMK primary
1	.	.	.
2	105	-3	.
3	.	.	.
4	.	.	.
5	.	.	.
6	89	15	-0.44
7	108	-7	.
8	.	.	.
9	106	-4	.
10	.	.	.
11	96	8	0.46
12	93	11	.
13	91	13	.
14	.	.	.
15	100	0	-0.72

# Profiles, quoted from the list:
# CC(C)(C)NC[C@H](O)COc1nsnc1N1CCOCC1 is listed as TLR4 MyD88 comp = 0; S1P3 antagonist = -2; STAT1 inh = 0; RAM network inh = 2.4; STAT3 act = 106; STAT3 inh = -4; ROMK primary = .
# CC[n+]1c(/C=C(\C)OC)sc2ccccc21 is listed as TLR4 MyD88 comp = 1; S1P3 antagonist = -8; STAT1 inh = 1; RAM network inh = -0.1; STAT3 act = 89; STAT3 inh = 15; ROMK primary = -0.44

# New compounds follow
nr	structure	TLR4 MyD88 comp	S1P3 antagonist	STAT1 inh	RAM network inh
16	CCOc1ccc(C(=O)N[C@H](C(=O)O)C(C)C)cc1	4	.	-5	-0.3
17	Cc1cccc(C)c1NC(=O)COc1ccccc1C(=O)Nc1ccc(Br)cn1	-4	-13	-3	2.0
18	COC(=O)CCC(=O)CN	2	-5	-8	-1.2
19	CC(N=C(NC#N)Nc1ccncc1)C(C)(C)C (stereo not drawn)	-8	-36	-17	-1.1
20	CN(C)CCC(c1ccc(Br)cc1)c1ccccn1 (stereo not drawn)	-7	0	4	-0.1
21	CCC(NC(C)C)C(O)c1ccc(O)c(O)c1 (stereo not drawn)	-7	-1	-6	-1.0
22	CNCC(O)C(O)C(O)C(O)CO (stereo not drawn)	-4	-6	-7	1.0
23	N=c1c[n+](N2CCOCC2)[n-]o1	-4	0	1	1.0
24	CC[n+]1c(/C=C(\C)SC)sc2ccccc21	-8	.	-6	0.3

nr	STAT3 act	STAT3 inh	ROMK primary
16	94	11	.
17	113	-19	0.47
18	105	-3	.
19	99	3	.
20	101	1	.
21	100	2	.
22	.	.	.
23	101	1	.
24	90	14	.

# Among those listed so far, ten contain nitrogen in an aromatic ring.
nr	structure	TLR4 MyD88 comp	S1P3 antagonist	STAT1 inh	RAM network inh
2	O=c1[nH]cc(F)c(=O)[nH]1	-4	-15	5	1.1
6	CC[n+]1c(/C=C(\C)OC)sc2ccccc21	1	-8	1	-0.1
7	CN(C)CCC(c1ccc(Cl)cc1)c1ccccn1 (stereo not drawn)	3	-1&-18	-3	0.4
9	CC(C)(C)NC[C@H](O)COc1nsnc1N1CCOCC1	0	-2	0	2.4
15	Cc1ccc(S(=O)(=O)Cc2sc3ccccc3[n+]2C)cc1	-11	.	3	1.1
17	Cc1cccc(C)c1NC(=O)COc1ccccc1C(=O)Nc1ccc(Br)cn1	-4	-13	-3	2.0
19	CC(N=C(NC#N)Nc1ccncc1)C(C)(C)C (stereo not drawn)	-8	-36	-17	-1.1
20	CN(C)CCC(c1ccc(Br)cc1)c1ccccn1 (stereo not drawn)	-7	0	4	-0.1
23	N=c1c[n+](N2CCOCC2)[n-]o1	-4	0	1	1.0
24	CC[n+]1c(/C=C(\C)SC)sc2ccccc21	-8	.	-6	0.3

nr	STAT3 act	STAT3 inh	ROMK primary
2	105	-3	.
6	89	15	-0.44
7	108	-7	.
9	106	-4	.
15	100	0	-0.72
17	113	-19	0.47
19	99	3	.
20	101	1	.
23	101	1	.
24	90	14	.
